RE007 growth inh – less growth of the S. pombe RE007 Vpr strain; S. pombe RE007 Vpr strain, BacTiter-Glo ATP luminescence, 24 h; control for the full effect not named in the record; Potency, µM (highest dose often 92.2 µM), for inactives: top-dose activity change, negative = less growth; 360,000 compounds, 0.21% hits; AID 651644; active = well fitted falling curve with a large enough effect; inconclusive = small, poorly fitted or top-dose-only effect; inactive = no such curve, though single readings can be large or run the other way;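 also: % is scaled to controls: 0 for no effect and ±100 for the full control effect; nearly all actives have a fitted effect of over 50% in size; the assay follows cell death caused by Vpr and the record does not say whether a fall means rescue or toxicity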
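Fission yeast RE007 carrying one integrated HIV-1 vpr copy, seeded at OD 0.01 in PMG+AL medium with 23 nL pinned compound. Grown 24 h at 30 degrees; viability read by BacTiter-Glo luminescence after 5 min.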
MARV entry inh – inhibitors of Marburg virus binding or cell entry | 300,000 compounds, 1.8% hits | Marburg virus pseudotyped entry inhibition, cell reporter; control for the full effect not named in the record; about a third of the inactives were read at about 46 µM | AID 540276 | Potency, µM (highest dose often 37.8 µM), without a hit: at the highest dose activity change, negative = inhibition, actives largely listed as inhibitors; active = well fitted inhibition curve with a large enough effect; inconclusive = small, poorly fitted or top-dose-only effect, or effect the other way; inactive = flat fitted curve, though single readings scatter; tested in HEK293 cells; about a fifth of its hits are not listed in these tables; also: % is scaled to controls: 0 for no effect and ±100 for the full control effect; luciferase read-out
Cruzain inh noDet – cruzain (T. cruzi) inhibition without detergent; purified cruzain, Z-FR-AMC fluorescence, no detergent; P25779; Potency, µM, inactives show max response, negative = inhibition, actives largely listed as inhibitors; 200,000 compounds, 2.3% hits; active = well fitted curve in the direction sought with a large enough effect; inconclusive = small, poorly fitted or top-dose-only effect, or another doubt; inactive = no such curve, though single readings can be large; an effect the other way counts as inactive or inconclusive;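 also: plate controls were enzyme without inhibitor for no effect and buffer without enzyme for full effect; nearly all actives have a fitted effect of over 40% in size; top concentration of the series not given in the record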
Target sequence (P25779 123-467 limits assumed): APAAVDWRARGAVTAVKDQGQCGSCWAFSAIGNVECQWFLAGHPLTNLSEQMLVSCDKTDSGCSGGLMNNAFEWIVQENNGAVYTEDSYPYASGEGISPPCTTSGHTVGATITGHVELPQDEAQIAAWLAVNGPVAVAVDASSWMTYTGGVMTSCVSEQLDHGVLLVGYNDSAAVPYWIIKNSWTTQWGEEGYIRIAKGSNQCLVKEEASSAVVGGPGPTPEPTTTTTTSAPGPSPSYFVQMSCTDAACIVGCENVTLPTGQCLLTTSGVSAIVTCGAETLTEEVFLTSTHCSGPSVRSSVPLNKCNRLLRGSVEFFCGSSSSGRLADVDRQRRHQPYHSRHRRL
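Purified cruzain at 1.5 nM, pre-incubated 15 min with compound at room temperature in 100 mM sodium acetate pH 5.5, 5 mM DTT, 0.00005% Triton X-100. Reaction started with 2 uM Z-FR-AMC; AMC fluorescence increase over 60 s gives rate.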
Cruzain Triton – inhibitors of Trypanosoma cruzi cruzain with detergent; Potency, µM, for inactives: max response, negative = inhibition, actives largely listed as inhibitors; purified cruzain, Z-FR-AMC fluorescence, 0.01% Triton; P25779; 200,000 compounds, 0.43% hits; AID 1478; active = well fitted curve in the direction sought with a large enough effect; inconclusive = small, poorly fitted or top-dose-only effect, or another doubt; inactive = no such curve, though single readings can be large; an effect the other way counts as inactive or inconclusive;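 also: plate controls were neutral wells for no effect and buffer without enzyme for full effect; nearly all actives have a fitted effect of over 40% in size; top concentration of the series not given in the record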
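Compounds were screened in titration against cruzain (1.5 nM) with 0.01% Triton X-100 to counter colloidal aggregation. Activity was the AMC fluorescence increase over 60 s after adding 2 uM Z-FR-AMC at pH 5.5.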
StopGo reporter – FMDV 2A StopGo reporter, luciferase signal | human cells with a luciferase reporter of 2A StopGo recoding; control for the full effect not named in the record | 410,000 compounds, 1.2% hits | Potency, µM (highest dose often 57.9 µM), for inactives: at the highest dose signal change, negative = less light; active = well fitted falling curve with a large enough effect; inconclusive = small, poorly fitted or top-dose-only effect; inactive = no such curve, though single readings can be large or run the other way; tested in HEK293T cells; also: % is scaled to controls: 0 for no effect and ±100 for the full control effect; nearly all actives have a fitted effect of over 45% in size; luciferase light after 4 h
LASV entry inh – blocks Lassa virus binding to or entry into cells; Lassa virus pseudotype entry inhibition, cell reporter; control for the full effect not named in the record; Potency, µM (highest dose often 37.9 µM), without a hit: at the highest dose activity change, negative = inhibition, most hits filed as inhibitors; 300,000 compounds, 1.2% hits; AID 540256; active means well fitted inhibition curve with a large enough effect; inconclusive means small, poorly fitted or top-dose-only effect, or effect the other way; inactive means flat fitted curve, though single readings scatter; tested in HEK293 cells; also: % is scaled to controls: 0 for no effect and ±100 for the full control effect; nearly all actives have a fitted effect of over 50% in size; luciferase read-out
SARS PLpro yeast – SARS-CoV PLP inhibition in yeast | Potency, µM (titrated, usually from 32.9 µM), inactives show top-dose activity, positive = growth rescue | AID 485353 | 330,000 compounds, 0.19% hits | S. cerevisiae expressing SARS-CoV PLpro, growth rescue; control for the full effect not named in the record; also: 0% is about no effect; nearly all actives have a fitted effect of over 55% in size; growth read by luminescence after 48 h
NS1 inh – inhibitors of influenza NS1 protein function; AID 2326; Potency, µM (series often up to 46.1 µM), for inactives: top-dose activity, positive = more growth; S. cerevisiae slowed by influenza A NS1, growth recovery by OD600; 270,000 compounds, 0.4% hits; also: actives are rising curves; nearly all actives have a fitted effect of over 50% in size
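Recovery from NS1-induced slow growth read by OD600 in budding yeast switched to galactose assay medium (pH 6.0, -URA) at 1:100 dilution. Compound 23 nl per well; the matching strain lacking NS1 serves as control.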
* marks the source's active call; other numbers are inactive results; ? = inconclusive; / = not tested or not shown; & = joins results of further samples; [ ] = dose if it differs, or a comment. Unless noted, calls follow the shape of the dose curve; as a rule, active means well fitted rising curve with a large enough effect; inconclusive means small, poorly fitted or top-dose-only effect; inactive means no such curve, though single readings can be large or run the other way. Potency is read from the fitted curve at half-maximal effect.

Short keys: A = RE007 growth inh; B = MARV entry inh; C = Cruzain inh noDet; D = Cruzain Triton; E = StopGo reporter; F = LASV entry inh; G = SARS PLpro yeast; H = NS1 inh
CCOc1ccc(S(=O)(=O)NCCC(=O)NCC(c2ccc(OC)cc2)N2CCCCC2)cc1 (stereo not given)
  A = -6.9%; B = -7.8%; C = /; D = /; E = -14.7%; F = 0.3%; G = 4.3%; H = /
CCOC(=O)c1c(C)oc2c(CN3CCN(C)CC3)c(Br)c(OC)c(O)c12
  A = 4.1%; B = ?; C = 6.0%; D = 1.1%; E = 4.1%; F = -15.3%; G = 4.3%; H = ?
CC(=O)Oc1ccc(C(=O)NCc2ccco2)cc1
  A = -13.0%; B = -17.4%[46.1 µM]; C = /; D = /; E = -1.2%; F = 16.1%[46.1 µM]; G = 16.4%; H = 14.5%
C/C(=N\NC(=O)c1cccc(Cl)c1)c1cccc(NC(=O)C(C)C)c1
  A = 5.1%; B = -0.5%; C = -3.4%; D = 1.2%; E = 2.9%; F = 7.9%; G = -22.6%; H = -14.9%
Cc1ccc(C(=O)Nc2ccc(-c3nc4ccccc4o3)cc2)cc1Cl
  A = /; B = /; C = 9.8%; D = 0.1%; E = -24.0%; F = 3.7%[46.1 µM]; G = /; H = /
Cc1nnc(SCC(=O)N2CC(=O)Nc3ccccc32)n1C
  A = 0.3%; B = 1.2%; C = -11.9%; D = 0.6%; E = 0.0%; F = 1.1%; G = 10.3%; H = 0.9%
O=C(OCc1cccc(F)c1)c1ccc2c(c1)-c1ccccc1C2=O
  A = 3.5%; B = -0.7%; C = 1.1%; D = 0.7%; E = 29.8%; F = ?; G = 6.3%; H = -2.0%
N#C/C(=C\c1ccco1)C(=O)NCC1CCCO1 (stereo not given)
  A = 7.6%; B = ?; C = 2.8%; D = -5.5%; E = 21.1%; F = 3.1%; G = -9.0%; H = 1.2%
O=C(Nc1ccc(S(=O)(=O)Nc2nccs2)cc1)c1cc(-c2ccccc2Cl)nc2ccccc12
  A = -1.5%; B = ?; C = 4.9%; D = -2.6%; E = 38.1%[activator]; F = ?; G = 7.5%; H = 26.8%
CCc1ccc(C(C)NC(=O)c2cc(C)oc2C)cc1 (stereo not given)
  A = 2.6%; B = ?; C = -14.1%; D = -1.0%; E = -1.7%; F = ?; G = -4.7%; H = -43.1%
COc1ccc(OC)c(Nc2nc(=O)c3cccnc3s2)c1
  A = -2.7%; B = -1.1%&-1.1%[46.1 µM]; C = /; D = /; E = 17.7%; F = ?; G = -1.8%; H = 8.1%
CCOC(=O)c1[nH]c(C)c(C(=O)Nc2cc(Cl)ccc2C)c1C
  A = 2.7%; B = ?; C = ?; D = 3.9%; E = 7.0%; F = ?; G = 6.4%; H = -0.5%
CCOC(=O)C(C)n1cnc2c(nnn2-c2ccc(C)cc2)c1=O (stereo not given)
  A = 4.3%; B = 17.1%; C = -8.2%; D = 1.9%; E = 34.5%[activator]; F = ?; G = 13.0%; H = -3.5%
CC(C)c1ccc(NC(=O)CSC2=Nc3ccccc3C3=NC(CCC(=O)NCc4cccs4)C(=O)N23)cc1 (stereo not given)
  A = /; B = /; C = 3.9%; D = -3.5%; E = 0.0%; F = -2.2%[46.1 µM]; G = /; H = /
Cc1ccc(C)c(OC(C)C(=O)Nc2nccs2)c1 (stereo not given)
  A = -11.3%; B = -3.0%[46.1 µM]; C = /; D = /; E = -6.1%; F = 10.2%[46.1 µM]; G = 17.2%; H = -20.8%
COC(=O)Cc1ccc(NC(=S)Nc2ccccn2)cc1
  A = 7.9%; B = 8.2%[46.1 µM]; C = /; D = /; E = 10.9%; F = -8.9%[46.1 µM]; G = 0.4%; H = -3.1%
O=C(N/N=C/c1ccc(Cl)cc1)c1ccc2c(c1)OCO2
  A = -6.2%; B = /; C = /; D = /; E = 74.4%[activator]; F = /; G = -1.3%; H = 3.8%
O=C(Nc1nc(-c2ccc(Cl)cc2Cl)cs1)c1ccc(OCC2CCCO2)cc1 (stereo not given)
  A = -2.4%; B = ?; C = ?; D = -2.7%; E = ?; F = ?; G = 1.2%; H = 11.1%
Cc1ccc(CC(=O)Nc2cccc([N+](=O)[O-])c2)cc1
  A = 19.1%; B = /; C = /; D = /; E = 28.7%; F = /; G = -1.6%; H = 0.3%
CS(=O)(=O)n1nc(-c2ccco2)nc1NCc1ccccc1Cl
  A = /; B = -1.3%[46.1 µM]; C = -3.5%; D = -5.2%; E = 22.1%; F = 24.2%[46.1 µM]; G = /; H = /

Individual results from the list:
COC(=O)Cc1ccc(NC(=S)Nc2ccccn2)cc1 | StopGo reporter = 10.9%
Cc1ccc(C)c(OC(C)C(=O)Nc2nccs2)c1 (stereo not given) | NS1 inh = -20.8%
CS(=O)(=O)n1nc(-c2ccco2)nc1NCc1ccccc1Cl | Cruzain Triton = -5.2%
CCOC(=O)C(C)n1cnc2c(nnn2-c2ccc(C)cc2)c1=O (stereo not given) | StopGo reporter = 34.5%[activator]
O=C(N/N=C/c1ccc(Cl)cc1)c1ccc2c(c1)OCO2 | NS1 inh = 3.8%
O=C(Nc1nc(-c2ccc(Cl)cc2Cl)cs1)c1ccc(OCC2CCCO2)cc1 (stereo not given) | NS1 inh = 11.1%

4 of the compounds above, with two lines to a compound.
The line under a structure holds: RE007 growth inh	MARV entry inh	Cruzain inh noDet	Cruzain Triton	StopGo reporter	LASV entry inh	SARS PLpro yeast	NS1 inh
- O=C(N/N=C/c1ccc(Cl)cc1)c1ccc2c(c1)OCO2
→ -6.2%	/	/	/	74.4%[activator]	/	-1.3%	3.8%
- O=C(Nc1nc(-c2ccc(Cl)cc2Cl)cs1)c1ccc(OCC2CCCO2)cc1 (stereo not given)
→ -2.4%	?	?	-2.7%	?	?	1.2%	11.1%
- Cc1ccc(CC(=O)Nc2cccc([N+](=O)[O-])c2)cc1
→ 19.1%	/	/	/	28.7%	/	-1.6%	0.3%
- CS(=O)(=O)n1nc(-c2ccco2)nc1NCc1ccccc1Cl
→ /	-1.3%[46.1 µM]	-3.5%	-5.2%	22.1%	24.2%[46.1 µM]	/	/

The list goes on:
Short keys: A = RE007 growth inh; B = MARV entry inh; C = Cruzain inh noDet; D = Cruzain Triton; E = StopGo reporter; F = LASV entry inh; G = SARS PLpro yeast; H = NS1 inh
COC(=O)N/N=C/c1cn(Cc2c(Cl)cccc2Cl)c2ccccc12
  A = 21.5%; B = ?; C = -13.3%; D = -5.8%; E = -17.3%; F = ?; G = -13.5%; H = 8.5%
O=c1cc(CSc2ccc(Cl)cc2)nc(N2CCOCC2)[nH]1
  A = -12.9%; B = ?; C = 3.7%; D = -5.4%; E = -23.1%; F = 0.4%; G = 2.4%; H = 2.5%
CCC(C)S(=O)(=O)c1oc(-c2ccc(F)cc2)nc1S(=O)(=O)c1ccc(F)cc1 (stereo not given)
  A = /; B = ?; C = 1.5%; D = -6.2%; E = ?; F = ?; G = /; H = /
Cc1ccccc1C(=O)NC(=S)N(C)CCc1ccccn1
  A = -1.7%; B = -1.2%[46.1 µM]; C = /; D = /; E = 6.4%; F = 0.3%; G = 1.7%; H = /
Cc1ccc(C)c(S(=O)(=O)c2cn(C)c3cc(F)c(F)cc3c2=O)c1
  A = /; B = 4.6%[46.1 µM]; C = -14.6%; D = -0.4%; E = -3.8%; F = -7.8%[46.1 µM]; G = /; H = /
CC(C)n1c(CCCO)nc2ccccc21
  A = 6.7%; B = 25.5%; C = -8.4%; D = 2.6%; E = 9.7%; F = ?; G = -3.8%; H = 5.1%
CN(Cc1ccc(Cl)cc1Cl)C(=O)CNC(=O)c1ccco1
  A = 6.1%; B = 3.0%[46.1 µM]; C = /; D = /; E = -6.1%; F = 23.3%[46.1 µM]; G = 23.8%; H = -0.6%
O=C(CCCSCCCC(=O)NN=Cc1ccccc1)NN=Cc1ccccc1
  A = -20.9%; B = -0.4%[46.1 µM]; C = /; D = /; E = -2.1%; F = -22.9%[46.1 µM]; G = /; H = /
O=C(N/N=C/c1ccccn1)c1cc(C2CC2)nc2ccccc12
  A = 13.8%; B = ?; C = /; D = /; E = -8.3%; F = ?; G = -1.3%; H = -13.2%
Cc1nn(C)c(C)c1/C=C/C(=O)c1ccc(Cl)cc1Cl
  A = 6.3%; B = ?; C = /; D = /; E = ?; F = ?; G = -17.4%; H = /
